Screens: PubChem, National Center for Advancing Translational Sciences (NCATS)
D2 PAM: Beta-Arrestin HTS for Positive Allosteric Modulators of the Human D2 Dopamine Receptor: Potentiators | D(2) dopamine receptor (Homo sapiens), P14416 | DiscoveRx D2 beta-arrestin cells, luminescence, 90 min; 100% = 57 uM dopamine signal | potentiation, % (concentration not given with the values) | actives 0.23% (n = 360,000) | AID 624464, 2012; active = potentiation of 50% or more; inconclusive = 30% to 50%; inactive = 30% or less;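 also: compound concentration not given in the record; tested on top of an EC20 dose of dopamine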
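D2 cells co-treated with compound plus 50 nM dopamine (EC20) for 90 min at 37 deg C to detect potentiation. Beta-arrestin recruitment was read as enzyme-fragment luminescence after 1 h at ambient temperature. Full response was set by 57 uM dopamine.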
D2 agonist: Beta-Arrestin HTS for Positive Allosteric Modulators of the Human D2 Dopamine Receptor: Agonists. D(2) dopamine receptor (Homo sapiens), P14416. DiscoveRx PathHunter D2 beta-arrestin, luminescence, 90 min; 100% = 57 uM dopamine signal. activation, % (concentration not given with the values). actives 0.084% (n = 360,000). AID 624465, 2012; in the data active = activation above about 40%; inconclusive = about 15% to 40%; inactive = below about 15%; also: compound concentration not given in the record; the text of the record calls up to 30% inactive
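DiscoveRx PathHunter D2 beta-arrestin cells (2,100/well) attached overnight, then compound-stimulated 90 min at 37 C in HBSS/10 mM HEPES/0.1% Tween-20 buffer; beta-galactosidase complementation read by luminescence after 1 h at ambient temperature. Dopamine 57 uM final (EC100) as control.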
TRPV1 potentiator: HTS Assay for Compounds that Act as Potentiators of the Vanilloid Receptor 1. potentiation, % at 8.33 µM. TRPV1-expressing cells, Fluo-8 calcium influx, capsaicin EC20 potentiation; host cell line not named in the record; control for the full effect not named in the record. actives 0.02% (n = 320,000); active means potentiation above 80%; inconclusive means 30% to 80%; inactive means below 30%; also: 0% is about no effect
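TRPV1-expressing cells were cultured overnight at 35.5C and loaded with Fluo-8 calcium dye for 40 to 90 min at room temperature. After a 10 s baseline, compound was added and calcium influx was read kinetically for 3 min (ex 480/em 520 nm).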
Six1-Eya2 blk: qHTS Assay for Inhibitors of the Six1/Eya2 Interaction. Homeobox protein SIX1 (Homo sapiens) + Protein phosphatase EYA2 (Homo sapiens), …. AlphaScreen GST-Six1/His-Eya2 binding, biochemical; stronger effect = lower value; control for the full effect not named in the record. activity change, % (concentration not given with the values). actives 0.56% (n = 360,000). AID 651725, 2012; in the data active = activity change below about -65%; inconclusive = about -30% to -65%; inactive = above about -30%; also: % is scaled to controls: 0 for no effect and ±100 for the full control effect
Target sequence (O00167 whole entry, looked up): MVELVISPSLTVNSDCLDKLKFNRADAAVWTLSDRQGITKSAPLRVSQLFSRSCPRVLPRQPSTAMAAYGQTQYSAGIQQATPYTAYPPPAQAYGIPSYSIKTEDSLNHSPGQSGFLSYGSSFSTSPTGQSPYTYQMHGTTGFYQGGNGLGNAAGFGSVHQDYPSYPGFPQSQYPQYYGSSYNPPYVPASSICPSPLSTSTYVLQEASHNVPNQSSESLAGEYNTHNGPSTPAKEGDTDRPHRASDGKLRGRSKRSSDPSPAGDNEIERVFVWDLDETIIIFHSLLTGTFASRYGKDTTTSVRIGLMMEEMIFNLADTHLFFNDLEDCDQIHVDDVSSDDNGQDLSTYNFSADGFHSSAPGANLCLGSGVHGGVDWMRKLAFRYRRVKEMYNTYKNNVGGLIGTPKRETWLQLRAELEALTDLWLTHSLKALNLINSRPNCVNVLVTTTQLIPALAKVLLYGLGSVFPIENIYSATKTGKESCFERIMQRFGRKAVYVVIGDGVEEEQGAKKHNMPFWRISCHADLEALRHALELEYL
Target sequence (Q15475 whole entry, looked up): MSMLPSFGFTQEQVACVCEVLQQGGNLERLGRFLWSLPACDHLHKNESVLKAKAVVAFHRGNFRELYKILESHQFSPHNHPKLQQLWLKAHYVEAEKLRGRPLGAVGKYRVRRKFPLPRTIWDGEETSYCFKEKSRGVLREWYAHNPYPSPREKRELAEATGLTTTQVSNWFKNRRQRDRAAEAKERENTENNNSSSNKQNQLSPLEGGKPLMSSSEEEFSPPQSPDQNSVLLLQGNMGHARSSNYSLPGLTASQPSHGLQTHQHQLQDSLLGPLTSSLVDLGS
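GST-Six1 + His-Eya2 (5X stock: 250/500 nM); Tris pH 8.0, 300 mM NaCl, 0.05% BSA, 0.02% Tween 20; GSH donor/Ni acceptor beads; 1 h 37 °C dark; AlphaScreen readout.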
CtBP-E1A inh: qHTS Assay for Inhibitors of the CtBP/E1A Interaction; AlphaScreen GST-E1A/His-CtBP binding, 1536-well; stronger effect = lower value; control for the full effect not named in the record; activity change, % (test concentration not listed); actives 0.49% (n = 340,000); in the data active means activity change below about -65%; inconclusive means about -30% to -65%; inactive means above about -30%; also: % is scaled to controls: 0 for no effect and ±100 for the full control effect; compound concentration not given in the record
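In 5 uL wells, 23 nL compound meets equimolar GST-E1A and His-CtBP (5X stock 125 nM each) for 2 h, 37 °C. Beads (5X, 50 ug/mL) then 1 h, 37 °C, dark.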
PINK1 modulator: A Quantitative High throughput Screen to Identify Chemical Modulators of PINK1 Expression. PINK1 immunofluorescence, high-content cytometry, 24 h. Potency, µM (series often up to 76.6 µM), without a hit: at the top dose activation (PINK1 increase), usual class: activators. actives 0.2% (n = 410,000); active = well fitted activation curve with a large enough effect; inconclusive = small, poorly fitted or top-dose-only effect; inactive = flat fitted curve, though single readings scatter; cell line not stated here;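 also: potency is read from the fitted curve at half-maximal effect; % of control where 0% means no effect; nearly all actives have a fitted effect of over 65% in size; a mitochondrial uncoupler was the plate control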
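Decision-based qHTS: stable cells, 24 h exposure to five compound concentrations, CCCP as control. Fixed cells stained for PINK1 plus nuclear, mitochondrial and cell markers, cytometer read.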
Sfp inh: qHTS Assay for Inhibitors of Bacillus subtilis Sfp phosphopantetheinyl transferase (PPTase); AID 1490, 2009; 4'-phosphopantetheinyl transferase ffp (Bacillus subtilis), Q9F4F7; Potency, µM, for the others: max response, negative = inhibition, most hits filed as inhibitors; Biochemical Sfp PPTase activity, qHTS; actives 3.5% (n = 310,000); active = well fitted inhibition curve with a large enough effect; inconclusive = small, poorly fitted or top-dose-only effect, or another doubt; inactive = no such curve, though single readings can be large or run the other way;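 also: the enzyme is Sfp with the accession as filed and its product quenches rhodamine fluorescence; potency is read from the fitted curve at half-maximal effect; 0% = enzyme reaction without inhibitor and -100% = no enzyme wells; top concentration of the series not given in the record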
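Compounds were incubated with enzyme (final 15 nM) for 15 min at room temperature before substrate addition started the reaction. Fluorescence at 525 nm excitation, 598 nm emission was recorded immediately and after 30 minutes.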
Active calls of the source: *; ? = inconclusive; / = not tested or not shown; [ ] = dose if it differs, or a comment.

Order of results: D2 PAM | D2 agonist | TRPV1 potentiator | Six1-Eya2 blk | CtBP-E1A inh | PINK1 modulator | Sfp inh
Cc1c(C(=O)N2CCC(C)CC2)oc2ccc3c(c12)C(O)CC1(CCCCC1)O3 (stereo not given)
    -9 | 0.2 | -21 | -2 | -3 | 2.3% | 9%
Cc1ccnc(NC(=O)c2ccccc2NC(=O)c2ccccc2)c1
    -5 | -2.0 | -15 | 3 | 4 | 3.0% | -4%
COc1cccc2cc(-c3nnc(-c4ccccc4)o3)c(=O)oc12
    -5 | 0.5 | 8 | -11 | -13 | 1.6% | ?
CCCCCCSc1ccc([C@@H]2[C@@H]3C(=O)N(CC)C(=O)[C@@H]3[C@]3(C(=O)OC)CCCCN23)cc1OC
    -6 | -1.8 | -11 | 5 | 11 | 12% | /
Cc1ccc(NC(=O)COC(=O)c2ccc(-n3nc(C)cc3C)cc2)c(F)c1
    -5 | -3.5 | / | 5 | 6 | 4.7% | /
COc1ccc(NC(=S)NNC(=O)c2ccccc2OC(F)F)cc1
    -17 | -6.4 | 12 | 0 | 0 | 14%[38.3 µM] | 3%
COc1ccc(-c2nn(-c3ccccc3)cc2C(=O)NCC2CCCO2)cc1 (stereo not given)
    -20 | -1.6 | -6 | -1 | 0 | 7.7% | 8%
COc1cccc(CNC(C)C(=O)Nc2ccc3c(c2)OCCO3)c1 (stereo not given)
    -9 | -2.0 | -5 | 9 | 3 | -0.4% | -25%
CCn1c(SCC(=O)N2CCCC2)nc2c1c(=O)n(C)c(=O)n2C
    0 | 1.9 | -9 | -1 | 5 | 6.6%[38.3 µM] | 17%
O=S(=O)(N/N=C/c1cccnc1)c1ccc(Cl)c(Cl)c1
    -4 | -2.7 | -10 | 0 | -9 | -1.7% | -1%
CCCCOc1ccc(C(=O)NCC(=O)NCCOc2ccccc2OC)cc1
    -2 | 0.2 | -10 | 1 | -10 | 2.0% | /
CCN(CC)CCN(C(=O)C1=COCCO1)c1nc2ccc(C)cc2s1
    -35 | -4.0 | 1 | -6 | -1 | -1.6% | 1%
CCOC(=O)c1c(-c2ccc(OC)cc2)csc1NC(=O)CNCc1ccco1
    -7 | 1.3 | ? | -15 | -13 | 5.7% | -17%
O=C(Cn1cncn1)NCc1cccc(OC(F)F)c1
    -12 | -3.4 | -6 | 10 | 15 | 0.5% | 19%
S=c1[nH]nc(-c2ccc(Cl)cc2Cl)n1Cc1ccccc1
    -8 | 0.8 | -4 | -16 | -11 | 1.4% | ?
Cc1ccc(N(CC(=O)NC(C)C)C(=O)CCC(=O)Nc2ccccn2)c(C)c1
    -4 | 3.9 | / | 1 | 3 | 1.9% | /
COc1ccc(C(=O)N2CCc3cc(OC)c(OC)cc3C2c2ccc(OC)c(OC)c2)cc1OC (stereo not given)
    -5 | -0.8 | -11 | -12 | 9 | 4.9% | -4%
c1ccc2c(c1)CCN(c1nc3cc4c(cc3s1)OCCO4)C2
    -3 | -1.3 | -12 | -15 | -12 | 0.7% | ?
CCN(Cc1ccncc1)C(=O)c1cc(COc2ccc(OC)cc2Cl)on1
    0 | 4.4 | 0 | -8 | -13 | 3.3% | 1%
Cc1cccc2sc(NC(=O)CSc3cn[nH]n3)nc12
    -3 | -0.4 | -1 | 10 | 0 | 1.7% | 13%
CS(=O)(=O)N1CCCCC1c1cc(C(=O)NCc2ccc(Cl)c(Cl)c2)no1 (stereo not given)
    -1 | 6.5 | / | -6 | 1 | 0.5% | /
O=C1C=CC(=O)N1c1ccc(Nc2ccccc2)cc1
    -1 | 5.3 | / | -26 | ? | 4.7% | /
CCN(CC)C(=O)C1CC(=O)OC12CCCCC2 (stereo not given)
    -1 | -1.9 | -9 | -9 | 0 | -0.6% | 23%
COc1cc2c(cc1OC)C(c1ccccc1N)=NCC2
    -2 | -3.7 | -12 | 0 | -9 | -1.1% | 5%
Cc1ccc(C)c(N2CCN(C(=O)CCS(=O)(=O)c3ccc4c(c3)NC(=O)CO4)CC2)c1
    0 | -1.7 | -8 | 2 | -10 | -1.0% | 8%
O=C1NNC(=O)C1c1ccccc1
    -6 | -1.8 | 25 | 2 | 15 | -1.1% | -28%
COc1ccc(-n2c(SCC(=O)Nc3ccc4c(c3)OCO4)nc3c(c2=O)SCC3)cc1
    -1 | -2.5 | / | -1 | -3 | -0.4% | -2%
NC(=O)C1CCN(C(=O)CCSc2ccc(Cl)cc2)CC1
    -4 | 9.0 | -5 | 5 | 3 | 25% | 4%
CC1(C)CC(c2nc(-c3ccc(Cl)cc3)cs2)CCS1 (stereo not given)
    -10 | 1.8 | 0 | 42 | 47 | ? | 8%
CSCC(C)N1CCC(n2nccc2NC(=O)CCCc2ccccc2)CC1 (stereo not given)
    -31 | -5.9 | -8 | 5 | 1 | -0.5% | 11%
O=C(CSc1nc2ccc(Cl)cc2[nH]1)NCCc1ccc(Cl)cc1
    -3 | 0.3 | 1 | -14 | 0 | 7.6% | 19%
CCOC(=O)C(NC(=O)c1ccc(Cl)cc1Cl)(Nc1ccc(C)cc1)C(F)(F)F (stereo not given)
    -3 | -0.7 | / | 0 | 5 | 0.6% | 0%
CC1=C(C(=O)OC(C)C)C(c2cccs2)n2ncnc2N1 (stereo not given)
    2 | -1.4 | -5 | 0 | 7 | 0.0% | 18%
COc1ccc(C(=O)N/C(=C\c2cn(C)c3ccccc23)C(=O)N2CCN(C)CC2)cc1
    -22 | -8.4 | 7 | -1 | 1 | -0.8% | -5%
CC(=O)Oc1ccc2ccccc2c1C(NC(=O)Cc1ccccc1)c1ccccc1Cl (stereo not given)
    -16 | -2.3 | -11 | -5 | -2 | 17% | 11%
Cc1cc(-c2ccccc2)nc2oc(C(=O)NN)c(N)c12
    -6 | 3.2 | 11 | 1 | -6 | 6.4% | -2%
O=C(CCCc1ccccc1)N=C1SC2CS(=O)(=O)CC2N1c1ccccc1 (stereo not given)
    -4 | -0.7 | 4 | 6 | / | 0.6% | 6%
Cc1nn(CC(=O)N2CCc3ccccc3C2)c(C)c1[N+](=O)[O-]
    -7 | 1.8 | -2 | 7 | -23 | -2.0% | 10%
CCCCN1C(=O)C(=O)N(CC(=O)Nc2ccc(C(N)=O)cc2)C1=O
    -2 | 5.6 | 1 | -2 | -5 | 0.2% | /
O=C(Nc1cc(Cl)ccc1O)c1snnc1-c1ccccc1
    -11 | -5.7 | 20 | -14 | -26 | 11µM* | -5%
CCOc1ccc(NC(=O)N(C2CCCCCC2)C2CCN(C(C)=O)CC2)cc1
    6 | -4.2 | 4 | 5 | 4 | 2.7% | 4%
CCOC(=O)c1cc(NC(=O)c2ccccc2)c(=O)oc1-c1ccccc1
    -22 | -5.3 | -10 | 1 | -15 | 6.3% | 11%
O=C(c1ccc(NS(=O)(=O)c2ccccc2)cc1)N1CCCCCC1
    -6 | -0.4 | 12 | 12 | -3 | 1.0% | -3%
O=C(CC1(O)C(=O)Nc2ccccc21)c1ccccc1O (stereo not given)
    -31 | -11 | -5 | 3 | -3 | -1.6% | 19%
O=C(NC(C(=O)c1ccccc1)N1CCOCC1)c1ccccc1 (stereo not given)
    -1 | -3.2 | 3 | 3 | 2 | 1.3% | 17%
CC(Sc1ccccc1)C(=O)Nc1cccc(N(C)S(C)(=O)=O)c1 (stereo not given)
    -12 | 0.3 | -4 | 2 | 6 | / | 10%
Cc1ccc(Nc2nc(C)cc(C)c2C#N)c(C)c1
    -13 | -2.4 | / | 15 | 1 | 3.6% | /
COc1ccc(C(=O)NNC(=O)c2ccc3ccccc3c2)cc1
    -10 | -0.4 | / | 1 | 1 | 6.2% | /

Molecules from the list above that contain an aryl thioether with sulfur outside any ring:
Order of results: D2 PAM | D2 agonist | TRPV1 potentiator | Six1-Eya2 blk | CtBP-E1A inh | PINK1 modulator | Sfp inh
CCCCCCSc1ccc([C@@H]2[C@@H]3C(=O)N(CC)C(=O)[C@@H]3[C@]3(C(=O)OC)CCCCN23)cc1OC
    -6 | -1.8 | -11 | 5 | 11 | 12% | /
CCn1c(SCC(=O)N2CCCC2)nc2c1c(=O)n(C)c(=O)n2C
    0 | 1.9 | -9 | -1 | 5 | 6.6%[38.3 µM] | 17%
Cc1cccc2sc(NC(=O)CSc3cn[nH]n3)nc12
    -3 | -0.4 | -1 | 10 | 0 | 1.7% | 13%
COc1ccc(-n2c(SCC(=O)Nc3ccc4c(c3)OCO4)nc3c(c2=O)SCC3)cc1
    -1 | -2.5 | / | -1 | -3 | -0.4% | -2%
NC(=O)C1CCN(C(=O)CCSc2ccc(Cl)cc2)CC1
    -4 | 9.0 | -5 | 5 | 3 | 25% | 4%
O=C(CSc1nc2ccc(Cl)cc2[nH]1)NCCc1ccc(Cl)cc1
    -3 | 0.3 | 1 | -14 | 0 | 7.6% | 19%
CC(Sc1ccccc1)C(=O)Nc1cccc(N(C)S(C)(=O)=O)c1 (stereo not given)
    -12 | 0.3 | -4 | 2 | 6 | / | 10%
